HSD17B inhib = HSD17B dehydrogenase inhibition | Q99714 | recombinant HSD17B10, NADH fluorescence kinetic; many of its hits are not listed in these tables | Potency, µM (series often up to 57.1 µM), for the others: at the top dose activity change, negative = inhibition, usual class: inhibitors | actives 7.6% (n = 75,000); active = well fitted inhibition curve with a large enough effect; inconclusive = small, poorly fitted or top-dose-only effect; inactive = no such curve, though single readings can be large or run the other way;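 also: the protocol describes HADH2 (HSD17B10) and not the HSD17B4 of the title; nearly all actives have a fitted effect of over 70% in size; most hits overshoot -100% by far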
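Enzyme plus compound, 15 min room temperature; substrate mix added (NAD+ 1 mM, beta-hydroxybutyryl-CoA 90 uM final); plates read kinetically for NADH fluorescence. HADH2 was His-tagged, E. coli-derived, 20 nM.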
Numbers without * were called inactive; ? = inconclusive; [ ] = dose if it differs, or a comment. % is scaled to controls: 0 for no effect and ±100 for the full control effect; potency is read from the fitted curve at half-maximal effect. Some of the compounds tested (hit frequency here may not be typical).

SMILES | HSD17B inhib
COc1ccc(N2CCN(C(CNC(=O)C3CCCCC3)c3cccnc3)CC2)cc1 (stereo not drawn) | 3%
O=C(CNC(=O)c1ccccc1)NC1(C(=O)NC2CCCC2)CCCCC1 | 7%
Cc1onc(-c2ccccc2)c1C(=O)Nc1cc(C(F)(F)F)ccc1N1CCOCC1 | 0%
O=C(Cc1ccc(S(=O)(=O)N2CCCC2)s1)Nc1nc2c(s1)CCCC2 | ?
CC(C)CCCC(C)C1CCC2C3CC=C4CC(O)CC[C@@]4(C)C3CC[C@@]12C (stereo partly drawn) | -2%
Nn1c(SCC(=O)Nc2ccc3c(c2)OCCO3)nnc1-c1ccccn1 | 3%
S=c1[nH]nc(COc2ccc(Cl)cc2)o1 | -15%
Cc1ccc(C(c2nnnn2Cc2cccs2)N2CCN(C(=O)c3ccco3)CC2)cc1 (stereo not drawn) | -10%
COC(=O)c1[nH]c2ccc(C)cc2c1NC(=O)CN1CCC(C)CC1 | 32µM*
NC[C@@H](O)c1ccc(O)c(O)c1 | 13%
COc1ccc(CNC(=O)C2CCCN(S(=O)(=O)c3cnc[nH]3)C2)cc1 (stereo not drawn) | 5%
COc1cc(C(=O)NC2=NCCS2)ccc1OCc1c(C)noc1C | 6%
C[C@@]12CCC(=O)C=C1C=CC1C2CC[C@]2(C)C1CC[C@@]21CCC(=O)O1 (stereo partly drawn) | -1%
COc1cccc(-n2c(SCC(=O)NC3CCCCC3)nc3n[nH]c(C)c3c2=N)c1 | -8%
CCOc1ccc(N(CC(=O)NCCSc2ccccn2)S(C)(=O)=O)cc1 | 6%
CC(=O)c1ccc(Oc2cc(C)nc(-n3nc(C)cc3C)n2)cc1 | -1%
CCOC(=O)CCc1c(C)c2ccc(OCC(=O)OC(C)C)cc2oc1=O | 25µM*
CCOC(=O)C1CCN(c2ncnc3c2[nH]c2cccc(OC)c23)CC1 | 32µM*
CCCn1c(=N)n(CC(=O)c2cccs2)c2ccccc21 | 8%
COc1ccc(CN2CC(C(=O)NCCCN3CCN(C)CC3)CC2=O)cc1 (stereo not drawn) | -3%
COC(=O)N1CCC2(CC1)CCN(C(c1ccccc1)c1ccccc1)CC2 | 0%
CCCCc1c(O)nc(SCC(=O)N2CCOCC2)n(-c2ccccc2C)c1=O | -15%
CCN1C(=O)C2(/C(=C(\O)c3ccc4c(c3)OCCO4)C(=O)C(=O)N2CCCOC)c2ccccc21 (stereo not drawn) | 4%
COc1ccc(COC(=O)N/N=C2/C[C@@H](O)[C@@H](O)[C@@H]3[C@@H]4C(=O)N(c5cccc(Oc6ccccc6)c5)C(=O)[C@H]4CC[C@@H]23)cc1 | -2%[11.4 µM]
CCC(OC(=O)CCc1nc2ccccc2[nH]c1=O)C(=O)c1ccccc1 (stereo not drawn) | ?
(cont.)
SMILES | HSD17B inhib
COc1ccc2c(c1)OC/C(=C\c1ccc(OC)c(O)c1)C2=O | ?
CC(=O)Nc1ccc(NC(=O)Cn2cc3c(n2)CCC(C)C3)cc1 (stereo not drawn) | 5%
CC(=O)N1CCc2cc(S(=O)(=O)NC(C(=O)Nc3ccc4c(c3)OCCO4)C(C)C)ccc21 (stereo not drawn) | 10%
COc1ccc(NC(=O)c2cnc(C)cn2)cc1-n1cnnn1 | 0%
O=C(Nc1ccc2oc(-c3ccccc3Cl)nc2c1)c1ncn[nH]1 | 3.2µM*
Cc1cc(NC(=O)Cn2nnc3sc4c(c3c2=O)CCCC4)no1 | -8%
O=C(c1ccccc1)c1cccn1CC(=O)N1CCN(c2ccc(F)cc2)CC1 | 6%
CCOC(=O)N1CCN(C(=O)Cn2cc3c(n2)CCCC3)CC1 | 0%
COC(=O)c1cc(C)sc1NC(=O)CCCC(=O)O | -10%
COc1cc(NC(=O)c2ccc(C)cc2)c(OC)cc1NC(=O)CN1CCOCC1 | -1%
COCC(=O)N1CCC2(CCCN(Cc3ccccc3)C2)CC1 | 12%
Cc1cccc(CCNC(=O)C2CCC(CNc3c(N4CCCC4)c(=O)c3=O)CC2)c1 (stereo not drawn) | 6%
Cc1oc(-c2ccc(F)cc2)cc1-c1nn2c(-c3ccoc3C)nnc2s1 | ?
O=C1c2ccccc2S(=O)(=O)N1CCOc1ccc(F)cc1 | -6%
N#Cc1c(NC(=O)C(F)(F)F)sc2c3c(=O)c4ccccc4c(=O)c=3oc3ccccc3c12 | -21%[11.4 µM]
Cc1nc(NC(=O)CCCC(=O)Nc2nc(C)c(C)s2)sc1C | -1%
Cc1cccc(-n2nnc(C(=O)NCc3ccccn3)c2N)c1 | 4%
O=C(COc1ccc(Cl)cc1)Nc1nc(-c2cccs2)cs1 | 7%
COc1ccccc1N1CCN(C(=O)c2ccc(CS(=O)(=O)c3ccccc3OC)o2)CC1 | 3%
COc1ccc2c(=O)c(N3C(=O)c4ccccc4C3=O)coc2c1 | 17%
CN(C)CCNC(=O)Cc1c(C(=O)O)n(C)c2ccccc12 | 3%
COc1ccc2cc(C(c3nnnn3C3CCCCC3)N3CCCCCC3)c3nnnn3c2c1 (stereo not drawn) | 1%
COc1ccccc1CNC(=O)c1ccc(NS(C)(=O)=O)cc1 | 5%
COCCn1c(=O)c(C)nc2cnc(Oc3ccccc3)nc21 | -5%
Cc1cc(S(=O)(=O)N2CCN(c3ncccn3)CC2)ccc1-n1cnnn1 | -12%

Three entries from above in another layout.
canonical_smiles	HSD17B inhib
O=C(Nc1ccc2oc(-c3ccccc3Cl)nc2c1)c1ncn[nH]1	3.2µM*
CC(=O)Nc1ccc(NC(=O)Cn2cc3c(n2)CCC(C)C3)cc1 (stereo not drawn)	5%
O=C1c2ccccc2S(=O)(=O)N1CCOc1ccc(F)cc1	-6%

Carrying on.
SMILES | HSD17B inhib
O=C(Nc1nnc(SCc2ccc(F)cc2)s1)c1ccco1 | -2%
O=C(O)c1cc(N=Cc2ccccc2O)cc(C(=O)O)c1 | -10%[11.4 µM]
COC(=O)COc1nsnc1N1CCOCC1 | 12%
c1csc(-c2cn3c(n2)SCC3)c1 | -91%
COCCCNC(=O)c1cc(OC)c(OC)c(OC)c1 | 6%
Cn1cccc1Cc1nnc(SCC(=O)NCC2CCCO2)n1CCc1ccccc1 (stereo not drawn) | -6%
COc1ccc(NS(=O)(=O)c2cc(C)ccc2C)cc1 | 5%
Cc1ccc2[nH]c(=O)c(CN(CCCN3CCOCC3)C(=O)Nc3cccc(Cl)c3)cc2c1 | -1%
COc1ccc(C(=O)CSc2nnc(-c3ccc(C)cc3)o2)cc1 | 12%
Cc1cc(C(=O)CSc2nncs2)c(C)n1-c1c(C)n(C)n(-c2ccccc2)c1=O | 6%
CC(=O)OC[C@@H]1O[C@@H](O/N=C2/C[C@@H](O)[C@@H](O)[C@@H]3[C@@H]4C(=O)N(Cc5ccccc5)C(=O)[C@H]4CC[C@H]23)[C@H](OC(C)=O)[C@H](OC(C)=O)[C@@H]1OC(C)=O | -2%[11.4 µM]
CCn1cc(C(=O)NCC2CCCO2)c(=O)c2cc(S(=O)(=O)N(C)C)ccc21 (stereo not drawn) | -4%
Cc1cccn2c(=O)c3cc(C(=O)NCCCN4CCOCC4)n(C)c3nc12 | 16µM*
COc1ccccc1NC(=O)CN(C)S(=O)(=O)c1ccc(F)cc1 | 6%
O=c1c(CCc2ccccc2)nc2cnc(N3CCNCC3)nc2n1Cc1cccs1 | ?
Cc1nc2nc(-c3ccccc3)[nH]n2c(=O)c1Cc1ccccc1 | 10µM*
CCCC(O)(CCN(C)C)c1ccc(OC)cc1 (stereo not drawn) | -8%
Cc1ccccc1CSCCNC(=O)CN(c1ccc2c(c1)OCO2)S(C)(=O)=O | -6%
COc1cccc2cc3c(=O)n(-c4ccccc4)nc-3oc12 | ?
O=C(O)COCc1nc2ccccc2[nH]1 | 9%
O[C@@H](c1cc([C@@]23C[C@H]4CC[C@@H]2C[C@H](C4)C3)nc2c(Cl)cc(Cl)cc12)[C@@H]1CCCCN1 | 9%[11.4 µM]
COc1ccccc1CN1CC(C(=O)NCC2CCCO2)CC1=O (stereo not drawn) | 4%
COc1ccc(C2(C(=O)NC(C)C)CCCC2)cc1OC | 11%
O=c1c2ccccc2c(C=NCCO)c(O)n1-c1ccccc1 | 11%
Cc1ccc(S(=O)(=O)N2CCC(C(=O)Nc3nnc(-c4ccco4)s3)CC2)cc1 | -15%

Among those listed so far, these have a CF3 group.
SMILES | HSD17B inhib
Cc1onc(-c2ccccc2)c1C(=O)Nc1cc(C(F)(F)F)ccc1N1CCOCC1 | 0%
N#Cc1c(NC(=O)C(F)(F)F)sc2c3c(=O)c4ccccc4c(=O)c=3oc3ccccc3c12 | -21%[11.4 µM]

Entries from the list above with a COOH group:
SMILES | HSD17B inhib
COC(=O)c1cc(C)sc1NC(=O)CCCC(=O)O | -10%
CN(C)CCNC(=O)Cc1c(C(=O)O)n(C)c2ccccc12 | 3%
O=C(O)c1cc(N=Cc2ccccc2O)cc(C(=O)O)c1 | -10%[11.4 µM]
O=C(O)COCc1nc2ccccc2[nH]1 | 9%

Following part.
SMILES | HSD17B inhib
O=C(c1cc2nc(-c3ccco3)cc(C(F)(F)F)n2n1)N1CCN(c2ccccc2)CC1 | -28%
Cc1cc(C)cc(N2C(=O)C3C4C=CC(C4)C3C2=O)c1 (stereo not drawn) | 3%
CC(c1ccccc1)n1cc(C(=O)NCc2cccnc2)nn1 (stereo not drawn) | 1%
COc1ccc(-c2nc3ncccn3c2Nc2ccc3c(c2)OCCO3)cc1 | 6%
CCN(CC)C(=O)CSc1nnc(-c2cccc(OC)c2)o1 | 10%
CC(=O)Nc1nonc1NC(=O)CSc1ccccn1 | 0%
O=C(COC(=O)C1CCN(S(=O)(=O)c2cccs2)CC1)c1cc2ccccc2o1 | -12%
O=C(c1ccccc1Oc1nnnn1-c1ccccc1)N1CCOCC1 | 10%
COC(=O)c1ccc(C(NC(=O)OCc2ccccc2)/C(=C/[C@@H](C)C(=O)NCc2ccc(OC)c(OC)c2)c2cccnc2)cc1 (stereo partly drawn) | 5%
Cc1onc(-c2ccccc2Cl)c1C(=O)Nc1cccc2cccnc12 | 11%
CCC(C)(C(=O)NC1CCCC1)N(Cc1ccco1)C(=O)c1ccccn1 (stereo not drawn) | 7%
O=C(COC(=O)CCc1c[nH]c(=O)[nH]1)Nc1cccc(Cl)c1 | -2%
Cc1c(OCc2nn[nH]n2)ccc2c3c(c(=O)oc12)CCCC3 | 25µM*
Cn1nnc(NC(=O)c2cccc(F)c2)n1 | -2%
CN(c1ccc(C(=O)N2CCc3ccccc3C2)cc1)S(C)(=O)=O | 5%
N#Cc1cccc(-c2nc(NCc3cccs3)c3ccccc3n2)c1 | ?
CS(=O)(=O)N1CCC2(CCCN(c3ncccn3)C2)CC1 | -28%
COc1ccc(-c2cc(NCc3ccccn3)n3ncnc3n2)cc1 | 10µM*
CC(C)Cc1nc2oc3c(N4CCN(C)CC4)ncnc3c2c2c1CCCC2 | -4%
CC(=O)NCCn1c(SCC(=O)OCc2ccccc2)nc2ccccc2c1=O | -2%
Cc1csc2nnc(N)n12 | 1%
Cc1cccc(NC(=O)COc2ccccc2)c1 | 5%
CC(C)(C)Oc1ncc(Br)c(OC(C)(C)C)n1 | 7%
CCCc1nnc(NC(=O)CC(=O)OCC)s1 | 1%
CC1CC(N(C(=O)C2CC2)c2ccccc2)c2ccccc2N1C(=O)C1CC1 (stereo not drawn) | -6%
Further compounds follow:
SMILES | HSD17B inhib
Cc1cc2oc(=O)c3c(c2cc1OC(=O)c1ccco1)CCCC3 | 10%
COC(=O)c1c(C)oc(C)c(C(=O)OC)c1=O | 8%
CCC(C)(C(=O)NC1CCCC1)N(C(=O)c1cnccn1)c1c(C)n(C)n(-c2ccccc2)c1=O (stereo not drawn) | 13%
CCn1c(SCC(=O)Nc2cccc(NC(C)=O)c2)nnc1C(C)C | 11%
O=C(c1ccco1)N1CCN(C(c2ccccc2F)c2nnnn2Cc2cccs2)CC1 (stereo not drawn) | -7%
Cc1cc(C(=O)CSc2nc3ccccc3c(=O)[nH]2)c(C)n1C | -11%
CCNC(=O)CCCOc1ccc(Cl)cc1Cl | 5%
Cn1c(=O)c2[nH]c(CCCCC(=O)O)nc2n(C)c1=O | 4%[11.4 µM]
CC(NC(=O)Cn1ccsc1=N)C12CC3CC(CC(C3)C1)C2 (stereo not drawn) | 3%
O=C(c1cccs1)N(Cc1nc2sc3c(c2c(=O)[nH]1)CCCC3)C1CCCC1 | -14%
CN(C(=O)C(Cl)Cl)c1ccc(OC(=O)c2ccco2)cc1 | 4%[25.6 µM]
O=c1/c(=C/c2cccc3ccccc23)sc2ncnn12 | -1%
COc1cccc(CNC(=O)CCNS(=O)(=O)c2cccs2)c1 | 7%
COc1ccc(CNc2ccc(-c3ccc(OC)cc3)nn2)cc1 | -3%
O=C(Oc1ccccc1)N1CCC2(CC1)CCN(c1ccncc1)CC2 | 9%
COc1ccc2c(c1)N(C(=O)CSc1n[nH]c(C)n1)C(C)(C)C=C2C | -27%
O=C(c1cccnc1)N1CCC(c2nc3ccccc3[nH]2)CC1 | 21%
COc1ccccc1NC(=O)C(C)NS(=O)(=O)c1ccccc1 (stereo not drawn) | 5%
CCc1cccc(NC(=O)Nc2cccs2)c1 | -23%
COc1ccc(N2CSC3=C(C#N)C(c4ccc(OC)c(OC)c4)CC(=O)N3C2)c(OC)c1 (stereo not drawn) | 16µM*
C=CCNC(=O)C1CC(c2cccc(OC)c2)=NO1 (stereo not drawn) | -2%
CCn1c(SCC(=O)Nc2cc(F)ccc2C)nnc1-c1ccccc1O | 3%
C#CCCCO/N=C1/C[C@@H](O)[C@@H](O)[C@@H]2[C@@H]3C(=O)N(CC)C(=O)[C@H]3CC[C@@H]12 | 1%[11.4 µM]

Assay outcomes deposited in PubChem by National Center for Advancing Translational Sciences (NCATS).
